Screens deposited in PubChem BioAssay by several laboratories.
CSC inhib = cancer stem cell inhibition | cancer stem cell-like cells viability, luminescence | inhibition, % at 7.5 µM | AID 2717 | 1.1% of 300,000 active;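 active = mean at 75% or more and at least half the replicates too; inconclusive = mean and replicates disagree; tested in HMLE shEcad cells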;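 also: 0% = median of negative and 100% = median of positive control wells; the first replicate is given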
Yeast UUG start = yeast start codon fidelity modulation; activity score, % at 18.7 µM; S. cerevisiae UUG-firefly luciferase reporter, luminescence/redox ratio; AID 602363; 0.13% of 350,000 active;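 active = replicate mean at a twofold rise or more, about +100% in these data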;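 also: firefly luciferase made from a UUG start codon reports start codon fidelity; reporter light over untreated wells divided by growth signal over untreated wells; some hits fall short of that in this replicate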
HIV Env fusion = HIV envelope-mediated fusion inhibition | HeLa-JRFL Env/CEM21 cell fusion, luciferase | inhibition, % at 12.3 µM | 1.1% of 360,000 active | AID 651610;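 active = mean replicate inhibition score of at least 50 and every replicate individually at or above 50; inconclusive = only one of the two criteria met; inactive = mean below 50 and not all replicates reaching 50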;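 also: 0% = plate neutral controls and 100% = maraviroc near 300 nM; one replicate is shown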
Rce1 inhib = blocks yeast Ras-converting enzyme | 0.27% of 290,000 active | Q03530 | calls only | yeast membranes, quenched prenylated peptide cleavage fluorescence;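 active = fall in fluorescence gain of 50% or more versus controls, with final raw signal at or below 3038400; inconclusive = same 50% fall but final raw signal above 3038400; inactive = fall in fluorescence gain under 50%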;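 also: plate controls were neutral control wells for no effect and wells lacking membranes for full effect; tested at 10 µM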
Target sequence (Q03530 whole entry, looked up): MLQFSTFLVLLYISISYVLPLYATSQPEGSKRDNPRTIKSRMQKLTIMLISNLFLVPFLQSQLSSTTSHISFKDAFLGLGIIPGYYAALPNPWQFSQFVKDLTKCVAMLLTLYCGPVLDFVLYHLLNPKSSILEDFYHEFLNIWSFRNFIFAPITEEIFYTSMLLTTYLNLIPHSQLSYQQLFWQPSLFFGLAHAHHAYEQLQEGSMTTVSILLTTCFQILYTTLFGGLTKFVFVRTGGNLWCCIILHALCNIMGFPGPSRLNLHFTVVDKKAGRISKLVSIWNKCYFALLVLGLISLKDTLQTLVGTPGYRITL
eIF4H FP inh = inhibitors of RNA binding by human eIF4H; inhibition, % at 35 µM; 0.94% of 290,000 active; Q15056; eIF4H fluorescence polarization binding assay; AID 2012;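 active = 50% or more with normal probe brightness, or confirmed in later tests; inconclusive = above 50% with abnormal brightness, or retests that disagree; inactive = below 50% or failed in later tests; about a fifth of its hits are not listed in these tables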;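 also: calls also rest on retests at 20 µM and on dose response follow-up; 0% = protein and probe with vehicle and 100% = probe without protein; strong numbers were not always called active; many hits fall short of the cut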
PABP FP inh = blocks human PABP binding to poly(A) RNA | P11940 | 1% of 290,000 active | fluorescence polarization | AID 2014 | inhibition, % at 35 µM;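 active = 50% or more with normal probe brightness, or confirmed in later tests; inconclusive = above 50% with abnormal brightness, or retests that disagree; inactive = below 50% or failed in later tests; about a fifth of its hits are not listed in these tables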;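 also: calls also rest on retests at 20 µM and on dose response follow-up; controls were probe without protein and protein plus probe with vehicle; some compounds called inactive have numbers as strong as hits; many hits fall short of the cut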
MT1-MMP act inh = blocks activation of human MT1-MMP | AID 651647 | GFP/RFP ratio change, % at 20 µM | 0.061% of 360,000 active | HT1080 RFP-PRO-GFP cells, GFP/RFP ratio fluorescence, overnight; percent of plate control window, DMSO zero;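 active = GFP/RFP ratio change of at least 30% with cell ATP level not reduced by more than half and red fluorescence within 50% of control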; also: strong numbers were not always called active
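Assay system – RFP-PRO-GFP reporter HT1080 cells · Compound dosing – single dose of 20 µM compound, 1% DMSO final · Incubation – overnight compound exposure at 37 °C · Measure – GFP/RFP fluorescence ratio · Benchmarks – DMSO wells and RFP-L50D-GFP cells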
eIF4H FP inh retest = second read-out of eIF4H FP inh, no call of its own (marks repeat the call); inhibition, %; compound at 20 µM; confirmation average;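 mean of two retest wells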
PABP FP inh retest = also measured in PABP FP inh; calls as there; inhibition, %; compound at 20 µM; confirmation repeats;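 mean of two retest wells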
MT1-MMP act inh RFP = further read-out of MT1-MMP act inh, marked with its call; RFP signal change, %; measured here: RFP expression control read;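 0 = vehicle wells; hits needed this value within 50% of zero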
The depositor's hits bear a star; i = inactive; ? = inconclusive; . = not tested or not shown. Only part of the results is shown; rates above refer to the full screens.

SMILES	CSC inhib	Yeast UUG start	HIV Env fusion	Rce1 inhib	eIF4H FP inh	PABP FP inh	MT1-MMP act inh	MT1-MMP act inh RFP	others
Cc1ccc(OCC(=O)N2CCN(S(=O)(=O)c3ccc(Cl)cc3)CC2)c([N+](=O)[O-])n1	-8	.	.	i	-6	-2	-2	2
CN(C)c1ccc(/C=N/n2c(-c3ccccc3Br)n[nH]c2=S)cc1	-1	-18	0	i	3	-10	1	5
Cc1cc(C)cc(NC(=O)C(c2ccccc2)N2CCCC2)c1 (stereo not drawn)	0	-37	6	i	-4	2	4	3
COc1ccc(NC(=O)c2ccc([N+](=O)[O-])o2)cc1	48	-21	-6	i	-5	3	11	-1
CCN(CC)S(=O)(=O)c1ccc(C(=O)OCn2c(SC)nnc(C)c2=O)cc1	-14	-15	.	i	-6	2	1	4
O=C(CSc1nc2ccccc2c(=O)n1CCCN1CCOCC1)Nc1cccc(S(=O)(=O)N2CCCCCC2)c1	-7	.	?	i	-4	4	5	-12
CCNC(=O)CC1C(=O)N(c2ccc(F)cc2)C(=O)N1CCc1sccc1C (stereo not drawn)	-13	.	-3	.	-1	-8	-1	2
O=C(NC(=S)N1CCN(C2CCCCC2)CC1)c1ccccc1	-12	-20	21	i	2	11	5	6
Clc1ccc2oc(-c3ccccn3)nc2c1	.	-32	-266	i	16*	58*	-18	9	eIF4H FP inh retest=70*;PABP FP inh retest=53*
Cc1ncc([N+](=O)[O-])n1CCOC(=O)c1ccccc1	8	.	.	i	-6	-3	6	5
O=C(Nc1nc(-c2ccccn2)cs1)C1COc2ccccc2O1 (stereo not drawn)	38	-68	25	.	10	-1	-1	-10
O=C(NCc1ccccn1)c1cc(-c2ccccc2)on1	.	-9	.	i	0	-14	-2	1
COc1ccc(-c2noc(CCC(=O)N3CCC(C)CC3)n2)cc1	5	5	-7	i	-2	0	4	-2
Cc1ccc(C)c(-n2cc(CNC(C)Cn3cncn3)c(-c3ccccc3)n2)c1 (stereo not drawn)	-12	0	-8	i	-6	-11	-3	1
COC(=O)CN1C(=O)N/C(=C/c2cc(Cl)c(OC)c(OC)c2)C1=O	-10	-15	-1	i	-5	4	2	3
O=C(O)c1ccccc1C(=O)N1CCN(S(=O)(=O)c2cccc(C(F)(F)F)c2)CC1	-3	-7	.	.	.	.	2	-1
CN1CCN(C(=O)c2cc(COc3ccc(F)cc3Cl)on2)CC1c1ccccc1 (stereo not drawn)	1	-15	3	i	14	8	3	0
COc1ccc(CNC(=O)Cn2c(=O)n(CCC(=O)N3CCCCC3)c(=O)c3sccc32)cc1	-15	-6	-4	i	5	-1	1	-1
CCCCCc1nnc(N)s1	-5	-13	.	i	-2	12	1	4
CCC(c1nnnn1Cc1ccc2c(c1)OCO2)N1CCN(c2ccc(OC)cc2)CC1 (stereo not drawn)	37	1	.	.	0	15	-8	-7
Cc1ccc(N(CC(=O)N/N=C/c2cccnc2)S(=O)(=O)c2ccccc2)cc1	-14	.	4	i	10	6	1	-3
O=C(c1ccco1)N1CCN(C(=S)Nc2ccccc2C(F)(F)F)CC1	-13	-13	5	i	-16	-6	6	-5
CC(C)Sc1nc2c(c(=O)[nH]c(=O)n2C)n1CC(O)COc1ccccc1 (stereo not drawn)	-26	15	17	i	-3	10	-2	-2
O=C(CSc1nnc(CNc2ccc(F)cc2)n1Cc1ccco1)N1CCCC1	-4	4	-36	i	-1	-3	1	2
COc1ccc(-c2cc(-c3cccnc3)c(C#N)c(N)n2)cc1	8	.	3	i	-13	-24	-1	-2

As a short view, 13 of the compounds above:
SMILES	CSC inhib	Yeast UUG start	HIV Env fusion	Rce1 inhib	eIF4H FP inh	PABP FP inh	MT1-MMP act inh	MT1-MMP act inh RFP	others
Cc1ccc(OCC(=O)N2CCN(S(=O)(=O)c3ccc(Cl)cc3)CC2)c([N+](=O)[O-])n1	-8	.	.	i	-6	-2	-2	2
CN(C)c1ccc(/C=N/n2c(-c3ccccc3Br)n[nH]c2=S)cc1	-1	-18	0	i	3	-10	1	5
Cc1cc(C)cc(NC(=O)C(c2ccccc2)N2CCCC2)c1 (stereo not drawn)	0	-37	6	i	-4	2	4	3
COc1ccc(NC(=O)c2ccc([N+](=O)[O-])o2)cc1	48	-21	-6	i	-5	3	11	-1
CCN(CC)S(=O)(=O)c1ccc(C(=O)OCn2c(SC)nnc(C)c2=O)cc1	-14	-15	.	i	-6	2	1	4
O=C(CSc1nc2ccccc2c(=O)n1CCCN1CCOCC1)Nc1cccc(S(=O)(=O)N2CCCCCC2)c1	-7	.	?	i	-4	4	5	-12
CCNC(=O)CC1C(=O)N(c2ccc(F)cc2)C(=O)N1CCc1sccc1C (stereo not drawn)	-13	.	-3	.	-1	-8	-1	2
O=C(NC(=S)N1CCN(C2CCCCC2)CC1)c1ccccc1	-12	-20	21	i	2	11	5	6
Clc1ccc2oc(-c3ccccn3)nc2c1	.	-32	-266	i	16*	58*	-18	9	eIF4H FP inh retest=70*;PABP FP inh retest=53*
Cc1ncc([N+](=O)[O-])n1CCOC(=O)c1ccccc1	8	.	.	i	-6	-3	6	5
O=C(Nc1nc(-c2ccccn2)cs1)C1COc2ccccc2O1 (stereo not drawn)	38	-68	25	.	10	-1	-1	-10
O=C(NCc1ccccn1)c1cc(-c2ccccc2)on1	.	-9	.	i	0	-14	-2	1
COc1ccc(-c2noc(CCC(=O)N3CCC(C)CC3)n2)cc1	5	5	-7	i	-2	0	4	-2

Quoted at random: 2 compounds from above, in no set order.
SMILES	CSC inhib	Yeast UUG start	HIV Env fusion	Rce1 inhib	eIF4H FP inh	PABP FP inh	MT1-MMP act inh	MT1-MMP act inh RFP	others
Cc1ccc(OCC(=O)N2CCN(S(=O)(=O)c3ccc(Cl)cc3)CC2)c([N+](=O)[O-])n1	-8	.	.	i	-6	-2	-2	2
CCCCCc1nnc(N)s1	-5	-13	.	i	-2	12	1	4

The list continues:
SMILES	CSC inhib	Yeast UUG start	HIV Env fusion	Rce1 inhib	eIF4H FP inh	PABP FP inh	MT1-MMP act inh	MT1-MMP act inh RFP	others
CCN(Cc1ccccc1)C(=O)Cn1c(=O)oc2ccccc21	-12	-13	-7	i	-10	19	-3	-1
CCN(CC)C(=O)CSc1nc(N)c(C#N)c(-c2cccs2)c1C#N	-8	-3	-30	i	1	2	4	-3
COCCNc1nc2c(c(=O)n(C)c(=O)n2C)n1Cc1cccc(C(F)(F)F)c1	.	-20	.	i	-1	13	3	-7
OCc1nc2ccccc2n1CC(O)COc1ccccc1 (stereo not drawn)	.	-15	-24	i	-1	1	1	9
CC(C)NC(=O)CN(C)S(=O)(=O)c1ccc(F)cc1	-9	-24	.	i	-3	13	-2	0
COc1ccc(/C=C/C(=O)NCCc2ccc(OC)c(OC)c2)cc1	0	-2	-7	i	-6	10	-1	0
O=C(Nc1ccccc1C(=O)Nc1ccccc1C(=O)O)c1ccccc1	47	-13	-32	i	3	19	-2	0
O=C(COC(=O)C1CC1)Nc1ccc2[nH]c(=O)[nH]c2c1	-17	.	-1	i	-7	-14	-6	0
CCCCNC(=O)CCC(=O)N1CCN(C(c2ccccc2)c2ccccc2)CC1	-12	-2	1	i	-5	-11	-3	-2
CN(Cc1cccc(Cl)c1)C(=O)C1CCN(C(=O)Nc2ccccc2)CC1	-6	.	.	i	.	.	-1	-3
c1coc(-c2nc3c([nH]2)CCc2nonc2-3)c1	.	-19	-15	i	8	29	-23	-1
CCN1C(=O)c2cccc3c(S(=O)(=O)NCc4ccco4)ccc1c23	4	-9	-101	i	7	27	2	2
O=S(=O)(NC1=NCCCCC1)c1ccc(Cl)cc1	-11	-5	6	i	1	?	3	5
Clc1ccc(CNC23CN4CN(CN(C4)C2)C3)c(Cl)c1	-5	.	8	i	-5	-4	0	1
CC(=O)c1c(COC(=O)c2ccccc2)nc2ccccc2[n+]1[O-]	6	-19	-33	i	6	-4	0	2
CN(C)Cc1cc(C(C)(C)c2cc(CN(C)C)c(O)c(CN(C)C)c2)cc(CN(C)C)c1O	.	-22	-30	.	20	-4	0	4
COc1ccc(CN2C[C@@H](CO)O[C@@H](n3cnc4c(N5CCCC5)ncnc43)C2)cc1	.	1	-3	.	.	.	0	0
CC(N)c1csc(Nc2nncc3ccccc23)n1 (stereo not drawn)	.	-5	-4	.	.	.	-4	2
CCn1cc(C(=O)NC2CCCCC2)c(=O)c2cc(S(=O)(=O)N(C)C)ccc21	-5	10	-5	i	-6	4	-6	-2
CCCC12CN3CCN(CC(C3)/C1=N\NC(=O)c1ccccc1Cl)C2	-13	.	-3	i	-6	5	2	7
O=C(Nc1cc(Cl)cc(Cl)c1)N1CCN(C(=O)C2CCCO2)CC1 (stereo not drawn)	10	-7	16	i	-14	-2	-1	-2
COc1ccc(CCNC(=O)CCC(=O)N2CC(C)Oc3ccccc32)cc1OC (stereo not drawn)	9	11	5	i	-5	2	6	1
COc1ccccc1N1CCN(C(=O)CSc2nc(C)cc(=O)[nH]2)CC1	-3	-12	.	i	-4	39	6	3
CSCCC(NS(=O)(=O)c1ccc2c(c1)c(=O)n(C)c(=O)n2C)C(=O)NC1CCN(Cc2ccccc2)CC1 (stereo not drawn)	-1	-30	17	i	-5	16	1	3
Cc1ccc(S(=O)(=O)Nc2ccccc2N(C)S(=O)(=O)c2ccc(C)cc2)cc1	32	-9	20	i	.	.	0	-14
Nc1cccc(C(=O)c2ccccc2C(=O)O)c1	.	-7	-12	.	.	.	-2	3
Cc1cc(C)cc(NC(=O)C(=O)NCCCN2CCOCC2)c1	-3	-18	13	i	6	-5	2	1
COc1ccc(NC(=O)CN(Cc2ccccc2)S(C)(=O)=O)cc1OC	-10	.	10	i	-8	0	3	4
